# gsp antagonist – antagonists of gsp mutant (McCune-Albright syndrome); gsp-mutant cells, cAMP HTRF, 30 min; control for the full effect not named in the record; Potency, µM (titrated, usually from 76.9 µM), inactives show at the top dose activity change, negative = inhibition, actives largely listed as inhibitors; hit rate 0.4% among 340,000; AID 624288; active = falling curve of any shape with a large fitted effect; inconclusive = falling curve, mostly with a smaller effect; inactive = flat or rising curve; cell line not stated here;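 note: intracellular cAMP measured with PDE inhibitor Ro 20-1724 present during compound exposure; potency is the fitted concentration of half-maximal effect; % is set by controls: 0 for no effect and ±100 for the full control effect; nearly all actives have a fitted effect of over 65% in size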
#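 HTRF cAMP read-out (cAMP-d2 plus anti-cAMP antibody-K in lysis buffer, 30 min RT). Before lysis, cells are exposed to compounds with […] for 30 min at 37C in DPBS containing Ca/Mg, BSA and Tween 20.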
# TRPV1 potentiator – potentiators of human vanilloid receptor 1 (TRPV1). Q8NER1. TRPV1-expressing cells, Fluo-8 calcium influx, capsaicin EC20 potentiation; host cell line not named in the record; control for the full effect not named in the record. potentiation, % at 8.33 µM. hit rate 0.02% among 320,000. AID 540277; active means potentiation above 80%; inconclusive means 30% to 80%; inactive means below 30%; note: 0% is about no effect
# Target sequence (Q8NER1 whole entry, looked up): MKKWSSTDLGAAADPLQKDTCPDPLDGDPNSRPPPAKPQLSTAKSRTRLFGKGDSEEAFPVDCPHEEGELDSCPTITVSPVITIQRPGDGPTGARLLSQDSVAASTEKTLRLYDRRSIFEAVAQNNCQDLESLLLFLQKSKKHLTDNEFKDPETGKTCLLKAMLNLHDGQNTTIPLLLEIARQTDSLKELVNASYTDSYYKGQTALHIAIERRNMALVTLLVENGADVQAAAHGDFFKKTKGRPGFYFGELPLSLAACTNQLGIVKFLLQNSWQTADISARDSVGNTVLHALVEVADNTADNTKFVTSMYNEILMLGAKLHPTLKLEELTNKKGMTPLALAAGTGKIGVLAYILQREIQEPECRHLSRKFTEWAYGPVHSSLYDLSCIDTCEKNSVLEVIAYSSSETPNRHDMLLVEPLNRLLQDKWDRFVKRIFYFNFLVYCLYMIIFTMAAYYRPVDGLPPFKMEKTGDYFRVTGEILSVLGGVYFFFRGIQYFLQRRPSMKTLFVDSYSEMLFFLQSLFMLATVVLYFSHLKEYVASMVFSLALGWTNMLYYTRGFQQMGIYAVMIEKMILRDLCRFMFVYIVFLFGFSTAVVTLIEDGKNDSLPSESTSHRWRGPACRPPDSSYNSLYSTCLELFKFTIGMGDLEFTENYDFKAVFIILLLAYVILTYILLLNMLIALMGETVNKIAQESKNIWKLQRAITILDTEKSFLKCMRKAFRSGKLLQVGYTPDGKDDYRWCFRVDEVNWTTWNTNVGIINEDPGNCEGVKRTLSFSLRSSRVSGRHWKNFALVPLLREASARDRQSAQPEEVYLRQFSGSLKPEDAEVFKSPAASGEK
#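 Fluo-8 calcium influx in TRPV1-expressing cells, kinetic read (ex 480/em 520 nm). Compound added and read 3 min for agonist activity, followed by capsaicin at EC20 final and 2 min further read for enhancement.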
# ClpP mod – qHTS Assay for Activators of ClpP. purified B. subtilis ClpP, FRET peptide cleavage, 20 min. hit rate 1.9% among 340,000. Potency, µM (series often up to 57.5 µM), inactives show at the highest dose activity change, negative = active. ATP-dependent Clp protease proteolytic subunit (Bacillus subtilis (strain 168)), P80244; active = well fitted falling curve with a large enough effect; inconclusive = small, poorly fitted or top-dose-only effect; inactive = no such curve, though single readings can be large or run the other way; note: potency is the fitted concentration of half-maximal effect; the source files actives as falling curves though it sought activators and does not explain the sign; nearly all actives have a fitted effect of over 65% in size; many hits overshoot -100%
# Target sequence (P80244 whole entry, looked up): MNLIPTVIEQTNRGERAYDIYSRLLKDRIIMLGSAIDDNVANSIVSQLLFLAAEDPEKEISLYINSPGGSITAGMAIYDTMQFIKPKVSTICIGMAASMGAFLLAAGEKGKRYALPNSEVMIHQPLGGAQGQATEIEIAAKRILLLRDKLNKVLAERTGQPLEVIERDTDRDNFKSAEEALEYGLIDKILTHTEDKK
#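 Buffer: 100 mM Tris/HCl pH8, 100 mM KCl, 0.05% low protease BSA, 2.5% glycerol, 0.01% Tween-20. ClpP 10 microg/mL final; 20 min RT; delta FRET normalized to ADEP and DMSO controls.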
# Menin MLL FP FL – inhibitors of human menin-MLL interaction, wild-type MLL peptide | FP activity change, % at 61.4 µM | Fluorescence polarization, fluorescein-MLL peptide displacement from menin | 290,000 tested, under 10 active; inconclusive = falling polarisation curve, or a change in total fluorescence; inactive = total fluorescence flat and polarisation flat or rising; no compound was filed as active; the % refers to the polarisation; negative = inhibition;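 note: % of control where 0% means no effect; inhibitors lower the polarisation; unlabelled MLL peptide was the positive control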
# gsp agonist – agonists of gsp mutant (McCune-Albright syndrome); gsp mutant cells, cAMP HTRF, 30 min; control for the full effect not named in the record; Potency, µM (series often up to 76.9 µM), inactives show at the top dose activation (cAMP increase), usual class: activators; hit rate 0.13% among 340,000; AID 624287; active = well fitted activation curve with a large enough effect; inconclusive = small, poorly fitted or top-dose-only effect, or another doubt; inactive = no such curve, though single readings can be large or run the other way; cell line not stated here;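 note: phosphodiesterase inhibitor Ro 20-1724 added with compounds to block cAMP breakdown; potency is the fitted concentration of half-maximal effect; nearly all actives have a fitted effect of over 60% in size; about a fifth of the inactives were tested at one dose only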
#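 Cells stably selected in G418 were plated at 2000/well, grown 16-24 hr, then given compounds in DMSO with the PDE inhibitor […] (300 uM solution added) for 30 min at 37C; cAMP was read by HTRF.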
# CtBP-E1A blk – CtBP/E1A binding inhibition; AlphaScreen GST-E1A/His-CtBP binding, 1536-well; hits give low values; control for the full effect not named in the record; activity change, % (concentration not given with the values); hit rate 0.49% among 340,000; AID 651724; in the data active means activity change below about -65%; inconclusive means about -30% to -65%; inactive means above about -30%; note: % is set by controls: 0 for no effect and ±100 for the full control effect
#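 Homogeneous bead-based format: GST-tagged E1A captured on glutathione donor beads, His-tagged CtBP on nickel acceptor beads; compounds precede bead addition by 2 h at 37 °C.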
# Sfp PPTase inh – Sfp phosphopantetheinyl transferase inhibition; Biochemical Sfp PPTase activity, qHTS; Q9F4F7; Potency, µM, for inactives: max response, negative = inhibition, hits mostly inhibitors; hit rate 3.5% among 310,000; active = well fitted inhibition curve with a large enough effect; inconclusive = small, poorly fitted or top-dose-only effect, or another doubt; inactive = no such curve, though single readings can be large or run the other way;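 note: the enzyme is Sfp with the accession as filed and its product quenches rhodamine fluorescence; potency is the fitted concentration of half-maximal effect; 0% = enzyme reaction without inhibitor and -100% = no enzyme wells; top concentration of the series not given in the record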
#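 With Hepes-Na pH 7.6 buffer containing 10 mM MgCl2, Sfp (15 nM) modified BHQ-2-YbbR (12.5 uM) using rhodamine-CoA (5 uM). Two reads 30 minutes apart at 525/598 nm yielded each well's rate.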
# The depositor's hits bear a star; ? = inconclusive; . = not tested or not shown; [ ] = another dose, or the depositor's remark. Not a hit list; overall some 5.3% were active at least once.
Molecule	gsp antagonist	TRPV1 potentiator	ClpP mod	Menin MLL FP FL	gsp agonist	CtBP-E1A blk	Sfp PPTase inh
CCOCCCNC(=O)c1cn(CC)c2ccc(S(=O)(=O)N3CCC(C)CC3)cc2c1=O	-14.1%	-21.8	-1.4%	-0.5	16.8%	6.3	4.1%
Cc1sc(NC(=O)CSc2nc(N)cc(N)n2)c(C#N)c1C	-5.9%	4.4	-0.7%	1.7	15.7%	1.1	6.0%
CN1CCc2c(sc(/N=C/c3ccco3)c2C(N)=O)C1	6.8%	-7.3	6.6%	?	23.2%	-7.1	9.8%
O=C(Nc1cc2c(cc1Br)OCCO2)c1cccnc1	-3.0%	0.6	0.5%	.	1.2%	5.8	5.3%
CC(=O)Nc1ccc(NC(=O)C(C)OC(=O)c2cccc(S(=O)(=O)N3CCCCC3)c2)cc1 (stereo not given)	13.5%	8.3	28.2µM*	.	-10.6%	5.1	3.7%
O=C(O)c1ccccc1C(=O)Nc1ccc(Nc2ccc([N+](=O)[O-])cc2[N+](=O)[O-])cc1	0.2%	22.5	-4.1%	-11.2	1.5%	.	0.5%
COC(=O)c1ccccc1-c1ccc(/C=N/Nc2nc(N3CCCC3)nc(N3CCCC3)n2)o1	25.1µM*	7.5	0.0%	0.7	0.4%[15.4 µM]	6.7	-9.7%
Cc1ccc(S(=O)(=O)NCc2ccccc2)cc1C(=O)NC1CCCCC1	-20.7%	5.3	-1.0%	1.0	-3.5%	4.5	15.9%
Cc1c(C(=O)N2CCOCC2)c(S(=O)(=O)Nc2ccccc2F)c(C)n1C	-18.6%	-3.6	0.7%	-2.6	?	0.0	16.6%
Cc1cccc(OCCn2c(=O)oc3ccc(C)cc32)c1	-3.6%	-6.5	-1.9%	1.5	29.4%	2.8	-17.9%
CCCN1C(=O)C(NS(=O)(=O)c2ccc(N)cc2)(C(F)(F)F)C(C(=O)OC)=C1C (stereo not given)	-3.5%	-4.0	0.8%	3.9	-12.3%	11.7	8.5%
COc1cccc(/C(O)=C/c2nc3ccc(C(=O)NCCc4cccc(C)c4)cc3[nH]c2=O)c1	-8.8%	2.6	-7.9%	?	7.9%	13.1	1.9%
CSC1=C(C#N)C(c2ccc3c(c2)OCO3)C2=C(CCCC2=O)N1 (stereo not given)	-15.9%	2.9	-2.9%	1.3	1.7%	5.7	-1.1%
O=C(CSCc1cc(=O)n2nc(C3CC3)sc2n1)Nc1ccc(F)cc1	-2.9%	9.9	0.0%	.	19.2%	-3.1	2.4%
Cc1cc(C)n(CC(=O)N2CCCC(N3CCN(c4ccc(F)cc4)CC3)C2)n1 (stereo not given)	8.5%	?	-4.1%	.	?	-2.6	8.1%

# Continued:
Molecule	gsp antagonist	TRPV1 potentiator	ClpP mod	Menin MLL FP FL	gsp agonist	CtBP-E1A blk	Sfp PPTase inh
COc1cccc(C(=O)NCCSc2ccc(C)cc2)c1	2.3%	-7.7	1.7%	.	0.8%	-5.8	5.5%
Cc1cc(C)n(CCN(C)c2nc3nonc3nc2N2CCCCC2)n1	15.9%	4.2	1.2%	-0.7	15.9%[15.4 µM]	1.3	5.0%
CC(C)(C)NCc1ccc(OCc2cccs2)cc1	11.8%	5.6	.	-3.3	-11.4%	4.5	14.5%
COc1ccc(/C=N/NC(=S)Nc2cc(C(F)(F)F)ccc2Cl)cc1	1.2%	-17.8	.	0.8	-7.4%	2.8	9.7%
O=c1c2ccccc2nc(COc2ccccc2)n1/N=C/c1ccc(O)cc1O	?	-3.3	10.0%	2.7	12.2%	-7.9	-1.8%
O=C(O)c1cc(S(=O)(=O)Nc2cccc(Oc3ccccc3)c2)ccc1Br	-3.2%	-16.0	.	1.6	5.8%[15.4 µM]	-5.0	-14.2%
CC(C)Cn1cnc2c1c(=O)n(CC(O)c1ccccc1)c(=O)n2CC(C)C (stereo not given)	-0.8%	9.9	-1.6%	-0.2	-64.8%[inhibitor]	0.5	8.5%
O=C(O)c1nccnc1C(=O)Nc1ccc(Oc2c(Cl)cccc2Cl)nc1	15.2%	-15.6	1.1%	-1.1	0.8%[15.4 µM]	3.0	?
COc1ccccc1NC(=O)Cn1nnc(-c2ccccc2NC(=O)c2cnccn2)n1	-5.1%	-4.1	.	-3.6	-5.4%[15.4 µM]	-0.1	-4.0%
Cc1ccc(S(=O)(=O)N/N=C\c2ccc(C)o2)cc1	3.4%	15.8	-1.8%	5.4	-0.3%	2.0	-6.4%
COC(=O)[C@H](Cc1ccccc1)NC(=O)NCc1ccccc1	19.0%	-0.3	1.4%	2.2	-15.0%	5.0	6.9%
CCCN(Cc1ccccc1)C(=S)Nc1ccc(F)cc1	-7.4%	4.0	-0.9%	-5.0	-23.9%	-0.3	20.1%
CCOc1ccccc1NC(=O)Nc1cc(C(=O)O)ccc1C	0.8%	2.0	.	-0.1	20.9%	-2.5	19.4%
O=C(NCc1nnc(SCc2ccc(C(F)(F)F)cc2)n1-c1ccccc1)C12CC3CC(CC(C3)C1)C2	-12.9%	?	0.3%	0.8	-34.7%[inhibitor]	-5.3	23.2%
O=C(Nc1nc(-c2ccccc2)cs1)C1CCCO1 (stereo not given)	-5.4%	.	-0.3%	-0.1	-30.8%[inhibitor]	-1.0	7.2%

# The listing continues.
Molecule	gsp antagonist	TRPV1 potentiator	ClpP mod	Menin MLL FP FL	gsp agonist	CtBP-E1A blk	Sfp PPTase inh
Cc1cc(Nc2ccc3c(c2)OCCO3)n2ncnc2n1	15.1%	1.5	-0.8%	-0.5	-5.7%	-1.9	7.4%
Cc1ccc(S(=O)(=O)N2CCN(C(=S)NCCc3ccccc3)CC2)cc1	-8.9%	-2.4	-2.4%	-2.5	-28.8%	-12.8	9.4%
COc1ccc(C2/C(=C(/O)c3ccc(F)cc3)C(=O)C(=O)N2CCCN(C)C)cc1 (stereo not given)	14.3%	.	.	.	-15.4%[15.4 µM]	4.9	.
Cn1c(SCC(=O)NCc2cccs2)nnc1-c1ccco1	12.0%	6.3	-1.0%	-2.1	13.2%	5.9	21.9%
COc1ccc(NC(=O)CN(C)C(=O)c2ccc(-c3ccccc3Cl)o2)cc1	-15.1%	-7.2	.	.	-11.7%[15.4 µM]	-3.6	.
C/C(=N/NS(=O)(=O)c1ccc(C(C)(C)C)cc1)c1ccc2c(c1)OCO2	-6.1%	14.8	-0.1%	0.9	19.2%	-3.7	-0.2%
O=C(O)C1(C(=O)O)CCCC1	8.6%	.	.	.	-9.5%	6.6	.
COc1ccc(C2=NS(=O)(=O)N(C)C(C(=O)N(C)Cc3ccccc3)=C2)cc1	-23.1%	-19.1	-19.1%	0.5	16.0%	-19.4	25.0%
COc1ccc(C2CC(c3ccccc3)=NN2C(=O)CSc2ncccn2)cc1 (stereo not given)	-5.2%	18.6	-3.1%	-6.2	?	1.8	5.2%
COc1ccc(/C(C)=N/Nc2ccc(C(=O)O)cc2)cc1OC	-1.3%	4.5	1.2%	4.6	?	-4.4	12.4%
CCCS(=O)(=O)N1CCCC(C(=O)Oc2ccccc2Cl)C1 (stereo not given)	-1.6%	3.2	.	6.5	-56.6%[inhibitor]	2.6	12.0%
CN1CCN(C(=O)CCC(=O)NCc2ccc(F)cc2)CC1	2.5%	-3.1	0.9%	4.6	-7.3%	.	23.1%
O=c1[nH]c(CN2CCN(Cc3ccc4c(c3)OCO4)CC2)nc2sc3c(c12)CCC3	.	-6.6	.	5.9	.	.	-1.1%
CC1CC(=O)C2=C(C1)Nc1ccccc1N(C(=O)COc1ccccc1)C2c1ccco1 (stereo not given)	-9.7%	6.6	-6.9%	2.2	-37.1%[inhibitor]	-2.6	-2.9%
COc1ccc(C(=O)SC2=NCCS2)cc1OC	-2.4%	19.3	1.0%	1.6	-3.6%	34.4	6.0%

# The results go on.
Molecule	gsp antagonist	TRPV1 potentiator	ClpP mod	Menin MLL FP FL	gsp agonist	CtBP-E1A blk	Sfp PPTase inh
COc1ccc(C(=O)NCC(=O)N/N=C/c2ccco2)cc1OC	-6.5%	2.3	.	-11.7	-90.8%[inhibitor]	1.0	6.1%
COCc1nnc(NC(=O)CCCOc2ccccc2OC)s1	-18.2%	-4.9	-0.4%	-6.3	2.4%	-1.4	-15.6%
Cc1ccccc1N1CCN(Cc2cc3c(cc2[N+](=O)[O-])OCO3)CC1	-10.7%	13.2	1.3%	0.5	-11.4%	.	-15.7%
Nc1sc(-c2ccccc2)cc1-c1n[nH]c(=S)n1C1CCCCC1	?	3.5	.	5.2	8.7%	-5.5	-3.6%
CC(=O)Nc1ccc(S(=O)(=O)NCC(=O)NNC(=O)COc2c(C)cccc2C)cc1	-3.9%	.	0.5%	.	14.0%[15.4 µM]	11.4	.
CC1(c2nnc(-c3cccc(Cl)c3)o2)CC(c2ccc(C#N)cc2)=NO1 (stereo not given)	-15.7%	.	1.0%	.	-2.7%	4.8	.
O=C(NCCc1ccccc1)c1cc(S(=O)(=O)N2CCCC2)ccc1F	6.7%	-13.7	-1.5%	-8.5	-28.1%	10.8	9.3%
Cc1sc2nc(Cc3ccccc3)[nH]c(=O)c2c1-c1ccccc1	-10.1%	-4.8	0.6%	0.6	-4.2%[15.4 µM]	9.1	7.3%
Cc1ccc(NC2=C/C(=N\S(=O)(=O)c3cccs3)c3ccccc3C2=O)c(C)c1	-12.7%	?	-1.4%	4.5	-0.5%[15.4 µM]	-85.1*	-7.1%
C[C@@H]1CN([C@@H](C)CO)C(=O)CCCn2nncc2CO[C@H]1CN(C)S(=O)(=O)c1cccs1	.	.	1.1%	.	?	-2.4	.
CC(=O)Nc1nc(-c2ccccc2)cc(-c2ccco2)c1C#N	-4.4%	-3.1	4.1%	.	-55.7%[inhibitor]	.	.
CCCCCCn1c(SCC(=O)OC)nc2c1c(=O)[nH]c(=O)n2C	-1.0%	-4.2	0.9%	1.6	-42.2%[inhibitor]	-1.8	15.8µM*
COCCCNC(=S)N(CCCO)Cc1cc2cc3c(cc2[nH]c1=O)OCCO3	2.2%	19.0	9.3%	-0.6	-7.4%[15.4 µM]	0.3	3.8%
O=C(NC1CCCC1)C(c1ccccc1F)N(C(=O)c1csnn1)c1ccccc1 (stereo not given)	-5.1%	22.6	.	-3.0	12.5%[15.4 µM]	0.1	3.2%
CCn1cc(C(=O)OCC(=O)NCc2ccc3c(c2)OCO3)c(=O)c2ccc(C)nc21	-1.6%	-11.6	0.8%	5.0	11.8%	-2.7	17.0%
